Screening results deposited in PubChem by Broad Institute.
A1 inh = A1 inhibition. MEF A1-2A-BIM cells, caspase-Glo luminescence, 3 h; percent of clofoctol signal, DMSO as zero. caspase activation, % (concentration not given with the values). actives 0.51% (n = 21,000);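 active = most replicate scores above 10, or exactly half above 10 with mean activity above 10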;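 also: effector caspase 3 and 7 activity cleaving a DEVD luciferin substrate; 50 nL library stock added to about 30 µL; numbers are from one replicate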
BJeLR viab HTS = BJeLR cell viability reduction. AID 2275. actives 0.64% (n = 30,000). BJeLR fibroblasts viability, CellTiterGlo ATP luminescence, 48 h; HRASV12, hTERT and SV40 LT/ST transformed. viability loss activity score, % (no concentration beside the values); in the data active = viability loss activity score above about 50%; about a fifth of its hits are not listed in these tables;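 also: higher score means fewer live cells and less ATP luminescence; stock transfer was 50 or 100 nL into about 30 µL; 0% = vehicle wells and 100% = a reference killing control; one replicate is shown; the record names a cut of 85%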
Starred values were filed as active, the others as inactive; . = not tested or not shown. A portion of the library; count on the stated rates, not on these rows.

molecule | A1 inh | BJeLR viab HTS
CS(=O)(=O)/C(C#N)=C/c1cccn1-c1ccc(OC(F)(F)F)cc1 | -0.7 | -4.3
CC1CCCCN1C(=O)c1cc(-c2ccc(F)cc2)no1 (stereo not drawn) | -1.8 | -0.3
COc1ccc(NC(=O)Nc2cccc3c2O[C@@H](CN(C)C(=O)NC2CCCCC2)[C@@H](C)CN([C@@H](C)CO)C3=O)cc1 | . | 3.4
Cc1onc(-c2ccccc2)c1-c1ccnn1C(=O)c1ccc(Cl)cc1 | 0.7 | -4.2
C[C@@H]1CN([C@H](C)CO)C(=O)c2cccc(NC(=O)Nc3ccc(C(F)(F)F)cc3)c2O[C@H]1CN(C)C(=O)Nc1ccc2c(c1)OCO2 | . | -1.7
Cc1ccc(-c2nsc(SCC(=O)c3ccc(Cl)cc3)n2)cc1 | -0.5 | -0.9
Cc1ccc(S(=O)(=O)Nc2cccc3c2O[C@@H](CN(C)Cc2ccc(C(F)(F)F)cc2)[C@@H](C)CN([C@@H](C)CO)C3=O)cc1 | . | -0.3
C[C@H](CO)N1C[C@H](C)[C@@H](CN(C)S(=O)(=O)c2cn(C)cn2)Oc2ccc(NC(=O)Nc3cccc4ccccc34)cc2C1=O | 0.2 | 0.6
CCCn1c(C(O)c2ccc(C(C)C)cc2)nc2ccccc21 (stereo not drawn) | -0.3 | 7.2
COc1ccc(C2CC(=O)C=C(NCc3ccccc3)C2)cc1 (stereo not drawn) | 1.5 | 22.6
Cc1noc(C)c1S(=O)(=O)Nc1ccc2c(c1)C(=O)N([C@H](C)CO)C[C@H](C)[C@@H](CN(C)Cc1ccccc1)O2 | -0.9 | -3.7
CNC[C@@H]1Oc2ccc(NC(=O)Cn3cnnn3)cc2C(=O)N([C@@H](C)CO)C[C@H]1C | -0.1 | -0.1
O=C(NC1CCOC1=O)c1ccc(COc2ccc3ccccc3c2)o1 (stereo not drawn) | . | -5.0
Cc1ccc(C(=O)N2CCc3ccccc32)cc1 | -5.1 | 2.7
CC(=O)Nc1nc2ccccc2s1 | -3.7 | 1.3
O=C(O[C@H]1[C@H](Oc2ccccc2COC(=O)C2(O)C=CCCC2=O)O[C@H](CO)[C@@H](O)[C@@H]1O)c1ccccc1 (stereo partly drawn) | 0.1 | 57.7*
O=C1CCC(=O)N1CCc1c[nH]c2ccc(OCc3ccccc3)cc12 | 0.1 | -4.0
C[C@H]1CN([C@@H](C)CO)C(=O)c2cccc(NS(=O)(=O)c3ccccc3)c2O[C@@H]1CN(C)C(=O)Nc1ccc2c(c1)OCO2 | . | -10.7
COc1ccc(-c2nn(-c3ccc(C)c(Cl)c3)c3c2cnc2ccc(F)cc23)cc1OC | . | -4.2
Clc1ccc(-c2ccn[nH]2)cc1 | -3.0 | 2.4
CC(C)NC(=O)COc1ccc(Cl)cc1Cl | 0.6 | 17.2
COc1ccc(CN(C)C[C@@H]2Oc3ccc(NC(=O)Nc4ccc(OC)cc4)cc3C(=O)N([C@H](C)CO)C[C@@H]2C)cc1 | 0.2 | -4.8
O=C(C1CCC(Cn2c(=S)[nH]c3ccccc3c2=O)CC1)N1CCN(c2ccc(Cl)cc2)CC1 (stereo not drawn) | -0.7 | 7.1
Cc1ccc(C)n1-c1ccc(-n2cccc2)cc1 | . | 3.8
Nn1c(C(=O)NCc2cccnc2)nc2ccccc2c1=O | 0.6 | -9.6

Further entries:
molecule | A1 inh | BJeLR viab HTS
COC1=CC(=O)O[C@@H](/C=C/c2ccccc2)[C@@H]1O | -0.6 | 3.9
Cc1cc(C(F)(F)F)nc(SCCNC(=O)c2ccccc2F)n1 | 0.4 | 9.4
C=C(C(=O)O)C(CCCCC(C)O)C(=O)O (stereo not drawn) | -1.0 | -5.7
CCCN1Cc2cccc(C(=O)Nc3ccc(S(=O)(=O)N4CCCCCC4)cc3)c2C1=O | . | -2.1
CC(=O)Oc1ccc(OC(C)=O)c(S(=O)(=O)c2ccc(Cl)c(Cl)c2)c1 | . | 21.2
CC(C)c1ccc(CNC(=O)c2ccc(=O)[nH]c2)cc1 | -1.1 | 4.7
CC1CN=C(N(C(=O)Nc2ccccc2)c2cccc(C(F)(F)F)c2)S1 (stereo not drawn) | -0.9 | 4.5
CNC[C@@H]1Oc2ccc(NC(=O)Nc3ccccc3)cc2C(=O)N([C@@H](C)CO)C[C@H]1C | -0.2 | 1.0
Cc1noc(C)c1NC(=O)Nc1cccc2c1O[C@H](CN(C)Cc1ccc(C(=O)O)cc1)[C@@H](C)CN([C@@H](C)CO)C2=O | . | -0.2
C[C@@H]1CN([C@@H](C)CO)C(=O)c2cc(NS(=O)(=O)c3ccc(F)cc3)ccc2O[C@H]1CN(C)Cc1ccc(C(=O)O)cc1 | 0.2 | 2.9
C[C@H](CO)N1C[C@H](C)[C@H](CN(C)S(=O)(=O)c2ccccc2)Oc2ccc(N(C)C)cc2C1=O | -0.5 | 1.4
CC(C)NC(=O)Nc1cccc2c1O[C@@H](CN(C)Cc1ccc(C(F)(F)F)cc1)[C@H](C)CN([C@@H](C)CO)C2=O | . | -0.1
COc1ccc(S(=O)(=O)Nc2ccc3c(c2)C(=O)N([C@H](C)CO)C[C@@H](C)[C@@H](CN(C)C(=O)NC2CCCCC2)O3)cc1 | 0.1 | -5.3
Cc1ccc(S(=O)(=O)Nc2cccc3c2O[C@@H](CN(C)Cc2ccc(-c4ccccc4)cc2)[C@H](C)CN([C@H](C)CO)C3=O)cc1 | . | 0.9
FC(F)(F)C1=Nc2ccccc2N(c2ccc(Cl)c(Cl)c2)C1 | 2.4 | -7.6
C[C@H](CO)N1C[C@H](C)[C@@H](CN(C)Cc2ccc(C(F)(F)F)cc2)Oc2ccc(NC(=O)CCN3CCOCC3)cc2C1=O | 0.5 | 0.9
O=C(CN1C(=O)CCc2ccccc21)NC1CCCCC1 | 1.1 | -7.5
COC(=O)CN1C(c2ccc(OC)cc2)=Nc2ccc(Cl)cc2C1c1ccccc1 (stereo not drawn) | 0.1 | -6.2
CCOC(=O)N1CCC(n2c(SCC(=O)NC(C)CC)nc3ccccc3c2=O)CC1 (stereo not drawn) | 0.3 | 0.0
C[C@H]1CN([C@@H](C)CO)C(=O)c2cccc(NC(=O)Nc3ccc(C(F)(F)F)cc3)c2O[C@H]1CN(C)Cc1ccc(-c2ccccc2)cc1 | . | 1.4
CN1N=C2c3ccccc3CCCC2C1c1cccs1 (stereo not drawn) | . | -3.6
Clc1ccc(COC(Cn2ccnc2)c2ccc(Cl)cc2Cl)cc1 (stereo not drawn) | 0.3 | 18.4
C[C@H](CO)N1C[C@H](C)[C@H](CN(C)C(=O)Nc2cccc3ccccc23)Oc2ccc(NC(=O)Nc3ccc4c(c3)OCO4)cc2C1=O | -0.8 | 1.0
C[C@H](CO)N1C[C@H](C)[C@H](CN(C)Cc2ccccc2)Oc2ccc(NS(C)(=O)=O)cc2C1=O | 0.5 | 3.3
C[C@H](CO)N1C[C@H](C)[C@H](CN(C)Cc2ccccc2)Oc2ccc(NS(=O)(=O)c3ccc(Cl)cc3)cc2C1=O | 0.8 | 4.4

New compounds follow:
Molecule | A1 inh | BJeLR viab HTS
Cc1cc(C(=O)NNCc2ccccc2)no1 | 0.6 | -0.7
COc1cc(/C=C2/SC(=Nc3cc(C)cc(C)c3)NC2=O)cc(Br)c1OC | 3.8 | .
C[C@H]1CN([C@@H](C)CO)C(=O)c2cc(NS(=O)(=O)c3cccs3)ccc2O[C@H]1CN(C)Cc1ccncc1 | 0.7 | -2.0
COc1cc2occ(-c3ccc(O[C@@H]4O[C@H](CO[C@@H]5OC[C@](O)(CO)[C@H]5O)[C@@H](O)[C@H](O)[C@H]4O)cc3)c(=O)c2c(O)c1OC | -0.1 | 0.4
CC(CC(=O)O)CC(=O)Nc1ccccc1C(=O)O (stereo not drawn) | -0.2 | -1.9
COc1ccc(S(=O)(=O)Nc2ccc3c(c2)C(=O)N([C@@H](C)CO)C[C@@H](C)[C@H](CN(C)S(=O)(=O)c2ccc(Cl)cc2)O3)cc1 | 0.2 | -2.3
COc1ccc(NC2=Nc3ccccc3CC2)cc1 | -6.3 | -0.6
O=C1NC2(CCCC2)N=C1c1ccccc1 | . | 0.6

The results go on.
Molecule | A1 inh | BJeLR viab HTS
C[C@H](CO)N1C[C@H](C)[C@@H](CN(C)C(=O)Nc2ccccc2)Oc2ccc(NS(=O)(=O)c3cccs3)cc2C1=O | 0.2 | -1.4
CC(C)NC(=O)N(C)C[C@H]1Oc2ccc(NC(=O)CCCN(C)C)cc2C(=O)N([C@@H](C)CO)C[C@@H]1C | 0.0 | -0.3
CCN(CC)c1ccc(/C=C/C#N)cc1 | 0.9 | 27.5
COc1cc(CSc2nnnn2-c2ccc(C)cc2C)cc(OC)c1OC | -0.2 | 6.2
COc1ccc(CN(C)C[C@@H]2Oc3c(NC(=O)Nc4c(C)noc4C)cccc3C(=O)N([C@@H](C)CO)C[C@@H]2C)cc1 | . | 2.4
NC(=O)c1ccc2ccccc2c1 | -0.5 | -1.5
Cc1nnc2c(N3CCCC3)nc3ccccc3n12 | -0.5 | -3.4
C[C@H](CO)N1C[C@H](C)[C@@H](CN(C)S(=O)(=O)c2ccccc2)Oc2ccc(NC(=O)Nc3ccc(F)cc3)cc2C1=O | 0.5 | -2.5

A few values from the results shown:
Value of `COc1ccc(CN(C)C[C@@H]2Oc3c(NC(=O)Nc4c(C)noc4C)cccc3C(=O)N([C@@H](C)CO)C[C@@H]2C)cc1` in BJeLR viab HTS: 2.4
Value of `CC(=O)Nc1nc2ccccc2s1` in A1 inh: -3.7

Following part
Molecule | A1 inh | BJeLR viab HTS
C[C@H]1CN([C@@H](C)CO)C(=O)c2cccc(NC(=O)c3ccc(-c4nccs4)cc3)c2O[C@@H]1CN(C)Cc1ccc(C(=O)O)cc1 | . | -4.4
C[C@@H]1CN([C@H](C)CO)C(=O)c2cccc(NC(=O)Nc3ccc(C(F)(F)F)cc3)c2O[C@@H]1CN(C)C | . | 6.3
CC(c1cccnc1)N(C(=O)Nc1ccccc1)C1CCCCC1 (stereo not drawn) | 0.6 | 3.3
C[n+]1cc(-c2ccc3ccccc3n2)cc2ccccc21 | -0.5 | -2.2
CCN(CC)CCNc1ccc2nnc(CCNC(=O)c3ccc(C)cc3)n2n1 | 0.1 | -7.3
Cc1ccc(S(=O)(=O)Nc2ccc3c(c2)C(=O)N([C@H](C)CO)C[C@H](C)[C@@H](CN(C)C(=O)Nc2ccccc2)O3)cc1 | 0.6 | -0.6
COc1ccc(S(=O)(=O)Nc2cccc3c2O[C@H](CN(C)S(=O)(=O)c2ccc(Cl)cc2)[C@H](C)CN([C@@H](C)CO)C3=O)cc1 | . | 2.1
COc1ccc(NC(=O)Nc2cccc3c2O[C@H](CN(C)S(=O)(=O)c2cn(C)cn2)[C@@H](C)CN([C@@H](C)CO)C3=O)cc1 | . | -1.7

Compounds above that contain a thiophene ring, fused or not:
Molecule | A1 inh | BJeLR viab HTS
CN1N=C2c3ccccc3CCCC2C1c1cccs1 (stereo not drawn) | . | -3.6
C[C@H]1CN([C@@H](C)CO)C(=O)c2cc(NS(=O)(=O)c3cccs3)ccc2O[C@H]1CN(C)Cc1ccncc1 | 0.7 | -2.0
C[C@H](CO)N1C[C@H](C)[C@@H](CN(C)C(=O)Nc2ccccc2)Oc2ccc(NS(=O)(=O)c3cccs3)cc2C1=O | 0.2 | -1.4

(next part)
Molecule | A1 inh | BJeLR viab HTS
Cc1cc(C(=O)Nc2cccc3c2O[C@@H](CN(C)CC2CC2)[C@H](C)CN([C@H](C)CO)C3=O)n(C)n1 | . | 1.1
COc1ccc2c(c1)C(=NN)c1cc(OC)ccc1-2 | . | -3.4
C[C@H]1CN([C@@H](C)CO)C(=O)c2cccc(NC(=O)c3ccc(-c4nccs4)cc3)c2O[C@@H]1CN(C)C(=O)Nc1ccc(F)cc1 | . | 2.0
Cc1nn(-c2ccccc2)nc1C(=O)NC1CCS(=O)(=O)C1 (stereo not drawn) | 0.1 | 1.6
COc1ccc(CN(C)C[C@H]2Oc3c(NC(=O)C4CCCCC4)cccc3C(=O)N([C@@H](C)CO)C[C@H]2C)cc1 | . | -0.3
C[C@@H]1CN([C@@H](C)CO)C(=O)c2cc(NC(=O)CCN3CCOCC3)ccc2O[C@@H]1CN(C)Cc1ccc(Cl)c(Cl)c1 | 0.5 | -3.5
COc1ccc(NC(=O)c2cccc(C)c2)c(OC)c1 | -1.5 | -3.6
C[C@@H]1CN([C@@H](C)CO)C(=O)c2cccc(NS(=O)(=O)c3cccs3)c2O[C@@H]1CN(C)S(=O)(=O)c1cn(C)cn1 | . | 0.1

Carrying on:
Molecule | A1 inh | BJeLR viab HTS
COc1ccc(C2C(C(=O)Nc3ccc(OC)c(OC)c3)c3ccccc3C(=O)N2C)cc1 (stereo not drawn) | . | -5.2
C[C@@H]1CN([C@@H](C)CO)C(=O)c2cc(NC(=O)CCN3CCOCC3)ccc2O[C@H]1CN(C)C(=O)Nc1ccccc1 | -0.3 | 0.6
COc1ccc2c(c1)c(=O)oc1cc(OC(C)C)ccc12 | -4.2 | 4.9
CC(C)=CCc1c(O)c(CC=C(C)C)c2c(c1O)C(=O)CC(c1ccccc1)O2 (stereo not drawn) | -0.8 | 0.7
CCOc1cc(/C=C2/SC(=N)N(c3nccs3)C2=O)ccc1OCCN1CCOCC1 | -0.1 | 18.5

Whole records from above. Order of screens: A1 inh	BJeLR viab HTS
`CC(C)=CCc1c(O)c(CC=C(C)C)c2c(c1O)C(=O)CC(c1ccccc1)O2` (stereo not drawn) in the list: -0.8	0.7
`COc1ccc(C2C(C(=O)Nc3ccc(OC)c(OC)c3)c3ccccc3C(=O)N2C)cc1` (stereo not drawn) in the list: .	-5.2
`CCOc1cc(/C=C2/SC(=N)N(c3nccs3)C2=O)ccc1OCCN1CCOCC1` in the list: -0.1	18.5
